Screening data as filed in PubChem BioAssay.
GLA inh pH 4.5: blocks human alpha-galactosidase A at pH 4.5; activity change, negative = inhibition, % at 105 µM; purified enzyme, 4-MU-alpha-Gal fluorescence, pH 4.5; 230,000 tested, under 10 active; inconclusive = small, poorly fitted or top-dose-only inhibition, or a rising curve; inactive = flat fitted curve, though single readings scatter; no compound was filed as active;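 note: 0% = full activity with enzyme and -100% = basal without enzyme; dose as in the result columns while the protocol names 77 µM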
Target sequence (P06280 whole entry, looked up): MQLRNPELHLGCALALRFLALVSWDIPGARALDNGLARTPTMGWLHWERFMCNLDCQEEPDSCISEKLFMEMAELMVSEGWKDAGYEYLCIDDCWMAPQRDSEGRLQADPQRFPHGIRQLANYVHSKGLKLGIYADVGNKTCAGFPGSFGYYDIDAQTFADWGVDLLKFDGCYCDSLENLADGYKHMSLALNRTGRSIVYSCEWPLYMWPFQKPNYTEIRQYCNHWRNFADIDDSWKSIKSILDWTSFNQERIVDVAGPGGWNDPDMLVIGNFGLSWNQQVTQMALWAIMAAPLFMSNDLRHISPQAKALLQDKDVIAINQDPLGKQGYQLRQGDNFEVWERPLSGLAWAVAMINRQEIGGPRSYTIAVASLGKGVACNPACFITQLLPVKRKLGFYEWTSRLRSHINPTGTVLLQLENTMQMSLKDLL
miR-21 FLuc: miR-21 reporter, rising signal. HeLa miR-21 FLuc reporter, luciferase, 48 h. Potency, µM (doses to about 38.3 µM), inactives show at the top dose reporter change, positive = more light. 340,000 tested, under 10 active. AID 2288; active = well fitted rising curve with a large enough effect; inconclusive = small, poorly fitted or top-dose-only effect; inactive = no such curve, though single readings can be large or run the other way;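 note: % of control where 0% means no effect; miR-21 action dims this reporter so a rising signal means less miR-21 action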
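Compounds were titrated across several concentrations (up to approximately 40 uM) and incubated 48 hours with HeLa miR-21-FLuc reporter cells (miR-21 target sequence downstream of FLuc, endogenous miR-21). Readout was firefly luciferase luminescence after lytic detection reagent.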
Rango-impB inh: inhibitors of Rango-importin beta complex formation; Potency, µM (doses to about 92.2 µM), for the others: at the top dose inhibition of complex formation; hit rate 0.031% among 340,000; Q14974; Rango CFP/YFP FRET sensor + importin beta, 45 min; active = rising FRET ratio curve, often small or poorly fitted; inconclusive = mostly compound fluorescence or quenching in the first reads; inactive = flat curves in all reads;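 note: potency is the fitted concentration of half-maximal effect; 0% = DMSO wells and 100% = buffer wells lacking importin beta; nearly all actives have a fitted effect of over 15% in size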
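Inhibition scored from the CFP 486 nm/YFP 530 nm FRET ratio 45 min after adding 0.125 microM importin beta to 50 nM Rango biosensor preincubated 5 min with compound (room temperature, PBS with DTT, Tween-20, BSA). No-importin wells as positive control.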
Rango dissoc inh: inhibitors of RanGTP-induced Rango-importin beta complex dissociation. O95149+P62826. Biochemical FRET Rango-importin beta, RanGTP-induced dissociation. Potency, µM (series often up to 46.1 µM), for the others: at the top dose activity change, negative = inhibition. hit rate 0.071% among 340,000; active means falling FRET ratio curve, often poorly fitted, with flat reads before Ran was added; inconclusive means other falling curves, or compound fluorescence or quenching; inactive means flat or rising ratio curve;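 note: potency is the fitted concentration of half-maximal effect; % of control where 0% means no effect; nearly all actives have a fitted effect of over 45% in size; -100% = wells without RanGTP and RCC1; the record marks most hits as doubtful in a second field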
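Quantitative HTS using a FRET biosensor: 0.1 uM Rango, 0.25 uM importin beta, 0.6 uM Ran, 2 mM GTP, 0.2 uM RCC1 final, PBS with DTT, Tween-20 and BSA. Post-read taken 45 min after Ran addition.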
Numbers without * were called inactive; ? = inconclusive; · = not tested or not shown; & = joins results of further samples. Not all compounds are listed, so the mix of outcomes need not match the whole.

GLA inh pH 4.5,miR-21 FLuc,Rango-impB inh,molecule,Rango dissoc inh
-3,-34%,-0.1%,N#Cc1nc(-c2ccccc2)oc1NCC1CCCO1 (configuration not stated),-8%
-6,-12%,0.4%,COc1cccc(C2CC(c3ccc(Cl)cc3)Nc3nc(N)nn32)c1 (configuration not stated),25%
1,-8%,-2.9%,O=S(=O)(NCC(c1ccccc1)N1CCNCC1)c1ccc(Cl)cc1 (configuration not stated),43%
-12,-5%,-1.6%,Cc1ccc(Sc2c(C)nn(C(=O)CNS(=O)(=O)c3ccc(F)cc3)c2C)cc1,-2%
·,·,-1.8%,COc1ccc(F)cc1S(=O)(=O)N1CCC2(CC1)OCCN2S(=O)(=O)c1cccs1,13%
-18,-20%,-0.1%,Cc1cc(C)n(-c2nc3ccccc3c(=O)n2OCc2ccc(F)cc2)n1,16%
2,-7%,-0.2%,CC(C)NC(=S)NNC(=O)C12CC3CC(CC(C3)C1)C2,2%
·,·,-1.0%,CC(=O)c1c(C)[nH]c(C(=O)OCC(=O)N(CC(C)C)C2CCS(=O)(=O)C2)c1C (configuration not stated),5%
-29,·,-1.1%,COc1cc(O)cc(/C=C/c2ccccc2)c1,15%
0,-2%,?,O=C(c1cc2ncccn2n1)N1CCc2c([nH]c3ccccc23)C1c1ccccc1F (configuration not stated),-4%
-8,-8%,0.8%,CCOc1cc(C(=O)OCc2ccc(C(=O)OC)o2)cc(Br)c1OC,-2%
1,-3%,-0.6%,Cc1ccnc(NC(=O)c2cc(-n3cnnc3)ccc2Cl)c1,5%

Five entries drawn at random from those above:
GLA inh pH 4.5,miR-21 FLuc,Rango-impB inh,molecule,Rango dissoc inh
-6,-12%,0.4%,COc1cccc(C2CC(c3ccc(Cl)cc3)Nc3nc(N)nn32)c1 (configuration not stated),25%
0,-2%,?,O=C(c1cc2ncccn2n1)N1CCc2c([nH]c3ccccc23)C1c1ccccc1F (configuration not stated),-4%
-29,·,-1.1%,COc1cc(O)cc(/C=C/c2ccccc2)c1,15%
2,-7%,-0.2%,CC(C)NC(=S)NNC(=O)C12CC3CC(CC(C3)C1)C2,2%
·,·,-1.0%,CC(=O)c1c(C)[nH]c(C(=O)OCC(=O)N(CC(C)C)C2CCS(=O)(=O)C2)c1C (configuration not stated),5%

(list continues)
GLA inh pH 4.5,miR-21 FLuc,Rango-impB inh,molecule,Rango dissoc inh
·,·,-0.7%,COc1ccc(C2=CC(=O)CC(C)(C)C2)cc1,9%
·,·,0.4%,CN(C)C(=O)c1ccc(NC(=O)c2ccc(-c3ccc(Cl)cc3)o2)cc1,-4%
-6,-1%,-0.1%,OCCN1CCN(C(=S)c2ccc(Br)cc2)CC1,2%
1,-2%,-1.5%,CCC/C(=N\NC(=O)CNC(=O)c1ccc(Cl)cc1)c1ccccc1,-9%
2,-5%,5.1%,COc1ccccc1-c1nc(-c2ccccc2)[nH]c(=O)c1C#N,-3%
1,-11%,2.6%,C=CCn1c(-c2ccc3[nH]c(C)c(C)c3c2)n[nH]c1=S,0%
0,-37%,?,COc1cccc(Nc2nc(-c3ccc4c(c3)OCCO4)cs2)c1,?
10,13%,2.6%,CCCCN(CC)S(=O)(=O)c1ccc(C(=O)Nc2nnc(COC)o2)cc1,-14%
1,-10%,-4.6%,COc1ccccc1CC(=O)Nc1c[nH]c(=O)[nH]c1=O,-16%
-10,-37%,0.8%,N/C(=N\OC(=O)c1ccc([N+](=O)[O-])cc1)c1cccnc1,-2%
·,·,0.5%,CN1CCN(S(=O)(=O)c2ccc(Nc3ccc(F)cc3)nc2)CC1,20%
·,-1%,0.7%,N#Cc1ccccc1NC(=O)COC(=O)c1ccc(F)cc1F,-1%
·,-2%,6.4%,O=C(CSc1nnc(CNC(=O)c2ccccc2)o1)NCc1ccc(F)cc1,1%
10,-14%,-0.4%,CCOc1ccccc1Oc1coc2cc(OC)ccc2c1=O,-2%
-5,-1%,-3.1%,CCOC(=O)N1CCN(c2cc(=O)n(-c3ccc(OC)cc3)c(=O)[nH]2)CC1,1%
·,1%,0.7%,Cc1coc2c1c(C)cc1oc(=O)c(CC(=O)NCC(=O)O)c(C)c12,7%
4,-21%,?,CCCC(=O)Nc1ccc(Cl)c(NC(=O)C(C)(C)C)c1,-1%
·,1%,1.4%,Cc1ccccc1N(C(=O)c1csnn1)C(C(=O)NC1CCCCC1)c1ccncc1 (configuration not stated),2%
0,-15%,-4.9%,Cc1ccc(N/N=C(\C#N)C(N)=S)cc1C,-13%
-5,-51%,-3.2%,COc1ccccc1Nc1nc(N)nc(CSc2ncccn2)n1,-10%
·,8%,-0.3%,CCn1c(CC(=O)Nc2ccccc2F)nnc1SCC(=O)Nc1nnc(C)s1,-6%
4,-9%,-3.0%,Cc1cccc(OCCC(=O)NCC(=O)Nc2cccc(C)c2C)c1,13%
4,0%,?,CCOc1ccc(N2C(=O)CC(SC(=NC)Nc3ccc4c(c3)OCO4)C2=O)cc1 (configuration not stated),-16%
-20,-7%,1.6%,Cc1nc2ccsc2c(=O)n1-c1ccc(Cl)cc1,14%
·,0%,-1.1%,Cc1cc(OCC(=O)NCc2ccccn2)c2c(C)cc(=O)oc2c1,-7%
7,2%,-1.2%,COc1ccc(NC(=O)COC(=O)c2ncc(Cl)c(Cl)c2Cl)c(OC)c1,-6%
·,·,-4.7%,CCCCN(C(=O)c1cccs1)C1CCS(=O)(=O)C1 (configuration not stated),8%
10,0%,-3.0%,CCOC(=O)C1(CCOC)CCN(C2C3CC4CC(C3)CC2C4)CC1 (configuration not stated),-11%
3,-12%,1.0%,CC(=O)Nc1ccc(SCC(=O)c2c(N)n(Cc3ccccc3)c(=O)n(C)c2=O)cc1,-18%
-11,7%,-1.8%,CC1(C)N=c2ccc([N+](=O)[O-])c(N)c2=[N+]1[O-],-10%
·,6%,3.4%,Cc1nc2nc(C)c(NS(=O)(=O)c3cccs3)c(=O)n2[nH]1,17%
0,-17%,2.7%,CNNC(=S)NCCC1=CCCCC1,7%
·,·,1.7%,CN1CCN(C2Cc3ccc(Cl)cc3Sc3ccc(F)cc32)CC1 (configuration not stated),7%
1,-2%,-2.4%,O=C1CCCc2c1nc(-c1ccco1)n2O,1%
·,5%,0.7%,Cc1ccc(S(=O)(=O)N2CCCOC2CNC(=O)C(=O)NCc2ccccc2C)cc1 (configuration not stated),11%
-18,?,?,C=CCNC(=O)/C(C#N)=C/c1c(N(Cc2ccccc2)Cc2ccccc2)nc2ccccn2c1=O,?
·,·,-0.6%,CCCCN1CC(=O)N2[C@H]3c4cc(Cl)ccc4OC[C@@H]3[C@H](C(=O)OCC)[C@]2(C)C1=O,-6%
-11,0%,1.0%,CCn1cnc2c1c(=O)n(CC(=O)N1CCc3ccccc31)c(=O)n2Cc1ccccc1,7%
3,-2%,0.9%,CC(C)Oc1ccc2nnnn2n1,-4%
-2,-17%,-0.3%,CC(=O)Oc1ccc(C(=O)c2ccccc2)c(OC(C)=O)c1,0%
·,1%,-0.1%,CC[C@]1(c2cccc(C)c2)C(=O)N(C(=O)OC)N1C(=O)OC,-2%
-1,0%,-1.1%,CC(C)(C)c1ccc(Oc2ccc(NC(=O)CCCC(=O)O)cn2)cc1,22%
6,-13%,-0.8%,Cc1cccn2cc(CCNC(=O)c3ccco3)nc12,-14%
·,·,-1.4%,O=C(O)c1cccc(-c2noc(-c3cccc(Cl)c3)n2)c1,-2%
·,·,?,O=C(CSc1nnc(-c2ccncc2)o1)Nc1cccc(F)c1,20%
·,·,-2.3%,COc1ccc(NC(=O)N(C)C[C@H]2Oc3ccc(NC(=O)Nc4ccc5c(c4)OCO5)cc3C(=O)N([C@H](C)CO)C[C@@H]2C)cc1,-3%
-3,-5%,?,Cc1cccc(N=Cc2c(O)cc(C)oc2=O)c1,?
·,-5%&-12%,-0.7%,O=C(Nc1cccc(NC(=O)c2ccc(Br)o2)c1)c1ccccc1,-2%

Three compounds from above, ordered by the number in GLA inh pH 4.5, low to high:
GLA inh pH 4.5,miR-21 FLuc,Rango-impB inh,molecule,Rango dissoc inh
-11,0%,1.0%,CCn1cnc2c1c(=O)n(CC(=O)N1CCc3ccccc31)c(=O)n2Cc1ccccc1,7%
-2,-17%,-0.3%,CC(=O)Oc1ccc(C(=O)c2ccccc2)c(OC(C)=O)c1,0%
6,-13%,-0.8%,Cc1cccn2cc(CCNC(=O)c3ccco3)nc12,-14%

Carrying on.
GLA inh pH 4.5,miR-21 FLuc,Rango-impB inh,molecule,Rango dissoc inh
5,-2%,0.0%,Cc1nc2cc(S(=O)(=O)N3CCC(C(=O)O)CC3)ccc2n1C1CCCC1,10%
-5,-2%,1.5%,Cc1cccc(OCCCCNCc2ccccc2)c1,31%
-12,-4%,0.3%,c1ccc(Oc2ncnc3oc(-c4ccccc4)cc23)cc1,1%
-1,0%,0.5%,Cc1ccc(C(=O)COC(=O)CNC(=O)C(c2ccccc2)c2ccccc2)cc1[N+](=O)[O-],-5%
-23,-32%,-0.2%,CSCC(O)Cn1ncc2ccccc2c1=O (configuration not stated),4%
9,-4%,-0.6%,Cc1ccc(S(=O)(=O)NNC(=O)c2sc(=S)n(C)c2C)cc1,0%
2,-10%,?,NS(=O)(=O)c1ccc(NC(=O)/C=C/c2cn(-c3ccccc3)nc2-c2cccc(Cl)c2)cc1,-6%
1,3%,?,Nc1ccc(Oc2ccc(F)cc2)nc1,-8%
-8,-3%,0.2%,Cc1c(C(=O)N2c3ccccc3Sc3ccccc32)cccc1[N+](=O)[O-],-16%
·,·,?,COc1ccccc1NC(=O)COC(=O)c1[nH]c(=O)[nH]c(=O)c1N,?
·,-4%,-3.4%,COc1cc2[nH]c3c(=O)n(N)c(=O)[nH]c3c2cc1OC,-2%
·,-3%,4.2%,N#Cc1cccc(S(=O)(=O)NCC(=O)NCCCc2ccccc2)c1,7%
3,-3%,-1.6%,COC(=O)c1ccccc1NC(=O)Cn1c(=O)n(Cc2ccccc2)c(=O)c2c(C)c(C)sc21,10%
6,1%,-0.5%,CCN1CCN(CC(=O)Nc2sc3c(c2C#N)CCC(C)C3)CC1 (configuration not stated),2%
-1,0%,-1.5%,Cc1ccccc1S(=O)(=O)N(CC(O)CN1C(=O)NC(C)(C)C1=O)c1ccccc1 (configuration not stated),23%
·,6%,-0.7%,O=C(CN1CCN(S(=O)(=O)N2CCCCC2)CC1)Nc1cc(Cl)cc(Cl)c1,-2%
-3,-13%,-0.6%,CCCNC(=O)Nc1ccccc1C(=O)Nc1ccc(OC)cc1,1%
-1,-3%,-0.9%,COC(=O)c1sccc1NC(=O)c1ccc(OC)cc1OC,3%
·,·,0.7%,CCCCn1c(N)c(N(CC(C)C)C(=O)c2ccc(F)c(S(=O)(=O)N3CCOCC3)c2)c(=O)[nH]c1=O,0%
?,-7%,?,Fc1ccccc1N1CC(c2ccccc2)C(c2cccs2)=N1 (configuration not stated),?
-5,-4%,?,N=C1/C(=C\c2ccc(-c3cccc(C(=O)O)c3)o2)C(=O)N=C2SC=C(c3ccccc3)N12,?
6,14%,0.2%,COc1ccc(CCNC(=O)CSc2nccc(=O)[nH]2)cc1OC,3%
-16,-55%,0.0%,CC1SCC(=NOCc2c(Cl)cccc2Cl)CS1 (configuration not stated),-19%
·,·,2.4%,CCCCN1C(=O)C(=O)c2cc(Cl)ccc21,6%
·,·,2.2%,O=C(CN1C(=O)NC2(CCCCCC2)C1=O)NCCc1ccc(F)cc1,0%
5,-9%,0.9%,O=C(NCCCN1CCOCC1)c1c(O)c2ccccc2[nH]c1=O,0%
·,·,0.5%,Cc1ccccc1C(=O)N1CCC(C(=O)OCc2nc(N)nc(Nc3ccccc3)n2)CC1,0%
-1,-1%,-0.3%,Cc1ccc(C(C)(C)C)c(OCCCCN2CCCC2)c1,-7%
-2,-2%,-2.9%,CC(C)NC(=O)c1cccc(C(F)(F)F)c1,13%
5,-2%,-0.8%,CCOc1ncccc1C(=O)OCC(=O)NCCc1ccc(OC)cc1,3%
·,-8%,-3.0%,COc1ccc(S(=O)(=O)NCc2ccc3c(c2)OCO3)cc1OC,6%
-17,-4%,-0.6%,COC(=O)c1cc(=O)n2c(-c3ccc(OC)cc3)csc2n1,-14%
·,-5%,0.0%,Cc1cc(Cl)cc2sc(NC(=O)C3CC3)nc12,-2%
